Screens deposited in PubChem BioAssay by National Center for Advancing Translational Sciences (NCATS).
TRPML1 agonist = human mucolipin-1 channel agonism. TRPML1-expressing cells, Ca2+ dye fluorescence, FDSS; host cell line not named in the record; reference of the full effect not given here. activation, % (test concentration not listed). Q9GZU1. actives 0.12% (n = 410,000); in the data active = activation above about 50%; inconclusive = about 30% to 50%; inactive = below about 30%; further: 0% is about no effect; the text of the record puts the active cut at 80%
Target sequence (Q9GZU1 whole entry, looked up): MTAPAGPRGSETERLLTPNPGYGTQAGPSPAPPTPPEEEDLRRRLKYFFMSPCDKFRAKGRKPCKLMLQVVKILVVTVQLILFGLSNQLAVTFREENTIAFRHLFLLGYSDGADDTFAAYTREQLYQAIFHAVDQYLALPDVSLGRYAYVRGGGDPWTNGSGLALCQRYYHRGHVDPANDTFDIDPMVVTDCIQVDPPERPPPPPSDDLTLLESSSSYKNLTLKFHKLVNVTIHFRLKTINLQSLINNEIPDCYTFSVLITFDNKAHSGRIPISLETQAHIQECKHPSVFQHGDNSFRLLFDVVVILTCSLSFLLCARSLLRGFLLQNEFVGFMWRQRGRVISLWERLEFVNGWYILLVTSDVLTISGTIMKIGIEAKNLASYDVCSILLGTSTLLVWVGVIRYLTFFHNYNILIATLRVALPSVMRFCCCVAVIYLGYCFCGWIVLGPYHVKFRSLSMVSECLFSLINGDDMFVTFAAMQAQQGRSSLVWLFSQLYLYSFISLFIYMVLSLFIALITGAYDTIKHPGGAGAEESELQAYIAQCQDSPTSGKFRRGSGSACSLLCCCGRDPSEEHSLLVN
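In this qHTS format, compounds were pin-transferred onto Ca8-dye-loaded TRPML1-DL cells induced with Tet overnight, and intracellular Ca2+ fluorescence was recorded kinetically for 110 s after a 10 s baseline. A subsequent 4uM final 54-4 (EC80) addition followed by a second 110 s read served as the antagonist phase.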
TRPML1 blocker = inhibitors of human TRPML1 channel | Q9GZU1 | TRPML1-inducible cells, Ca2+ dye fluorescence, FDSS; stronger effect = lower value; inhibition of EC80 agonist-evoked calcium signal | activity change, negative = inhibition, % (no concentration beside the values) | actives 0.02% (n = 390,000); in the data active means activity change below about -50%; inconclusive means about -30% to -50%; inactive means above about -30%;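 further: stimulus is agonist 54-4 at its EC80 concentration; on the % scale 0 is the no-effect control and ±100 the full control effect; compound concentration not given in the record; the text of the record puts the active cut at -80%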
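Calcium fluorescence in TRPML1-DL cells induced overnight with Tet: a 110 s read after compound pin addition, then a 110 s antagonist read after challenge with 54-4 at 4 uM final (EC80).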
D2 potentiator = positive allosteric modulators of human D2 dopamine receptor | P14416 | potentiation, % (concentration not given with the values) | actives 0.23% (n = 360,000) | AID 624464 | DiscoveRx D2 beta-arrestin cells, luminescence, 90 min; 100% = 57 uM dopamine signal; active = potentiation of 50% or more; inconclusive = 30% to 50%; inactive = 30% or less;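 further: compound concentration not given in the record; tested on top of an EC20 dose of dopamine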
Target sequence (P14416 whole entry, looked up): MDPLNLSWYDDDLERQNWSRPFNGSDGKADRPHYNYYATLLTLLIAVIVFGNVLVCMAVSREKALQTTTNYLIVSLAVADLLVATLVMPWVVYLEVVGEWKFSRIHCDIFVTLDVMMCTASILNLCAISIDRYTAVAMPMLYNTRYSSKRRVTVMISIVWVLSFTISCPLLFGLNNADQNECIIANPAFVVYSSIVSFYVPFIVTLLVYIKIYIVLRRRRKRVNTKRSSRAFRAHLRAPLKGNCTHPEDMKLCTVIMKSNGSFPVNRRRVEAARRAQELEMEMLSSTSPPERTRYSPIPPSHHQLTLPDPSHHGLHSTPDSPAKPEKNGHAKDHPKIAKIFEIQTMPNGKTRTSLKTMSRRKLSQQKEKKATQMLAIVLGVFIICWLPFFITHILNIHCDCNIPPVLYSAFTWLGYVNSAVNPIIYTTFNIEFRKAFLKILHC
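PathHunter D2 cells, attached overnight at 37 deg C, received compound in DMSO plus dopamine at EC20 (50 nM final) for 90 min at 37 deg C. Beta-arrestin recruitment was read as luminescence after 1 h with detection reagent at ambient temperature.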
CtBP-E1A inh = inhibitors of CtBP/E1A interaction | actives 0.49% (n = 340,000) | AID 651724 | AlphaScreen GST-E1A/His-CtBP binding, 1536-well; stronger effect = lower value; control for the full effect not named in the record | activity change, % (concentration not given with the values); in the data active means activity change below about -65%; inconclusive means about -30% to -65%; inactive means above about -30%; further: on the % scale 0 is the no-effect control and ±100 the full control effect
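Homogeneous bead-based format: GST-tagged E1A captured on glutathione donor beads, His-tagged CtBP on nickel acceptor beads; compounds precede bead addition by 2 h at 37 °C.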
Six1-Eya2 blk = blocks human Six1 binding to Eya2; activity change, % (no concentration beside the values); Q15475+O00167; AlphaScreen GST-Six1/His-Eya2 binding, biochemical; stronger effect = lower value; control for the full effect not named in the record; actives 0.56% (n = 360,000); in the data active = activity change below about -65%; inconclusive = about -30% to -65%; inactive = above about -30%; further: on the % scale 0 is the no-effect control and ±100 the full control effect; compound concentration not given in the record
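Six1/Eya2 binding was read as AlphaScreen signal after compounds were pinned into GST-Six1 plus His-tagged Eya2 (5X stock 250/500 nM) in pH 8.0 Tris/NaCl/TCEP buffer, beads added, then incubated 1 h, 37 C, dark.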
TRPV1 potentiator = enhances activation of the human vanilloid receptor TRPV1. Q8NER1. TRPV1-expressing cells, Fluo-8 calcium influx, capsaicin EC20 potentiation; host cell line not named in the record; control for the full effect not named in the record. potentiation, % at 8.33 µM. actives 0.02% (n = 320,000); active means potentiation above 80%; inconclusive means 30% to 80%; inactive means below 30%; further: 0% is about no effect
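Cells expressing TRPV1 were dye-loaded with Fluo-8 and read kinetically: 10 s baseline, 3 min after compound (agonist portion), then 2 min after EC20 capsaicin (allosteric enhancer portion). Calcium-bound dye fluorescence at 480/520 nm.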
* hit, by the source's call; ? = inconclusive; . = no result given; & = joins results of further samples.

| smiles | CtBP-E1A inh | TRPML1 blocker | TRPV1 potentiator | D2 potentiator | TRPML1 agonist | Six1-Eya2 blk |
| --- | --- | --- | --- | --- | --- | --- |
| O=C(O)C(Cc1c[nH]c2ccccc12)N1CCS(=O)(=O)CC1 (stereo not drawn) | 7.1 | 3.8 | 0.9 | -4.9 | -0.6 | -2.7 |
| O=c1c2cn[nH]c2nc(SCc2c(F)cccc2F)n1-c1ccc(Cl)cc1 | 1.9 | -4.4&11.8 | -9.6 | 3.3 | 3.2&3.2 | -9.4 |
| CC1C/C(=N\NC(=O)c2ccc([N+](=O)[O-])cc2)CC(C)(C)C1 (stereo not drawn) | . | -0.9 | -1.8 | -22.0 | -0.1 | 1.5 |
| Cc1ccc(Sc2cc(C(=O)c3ccccc3C(=O)O)ccc2[N+](=O)[O-])cc1 | -9.5 | 32.5 | 4.2 | -12.2 | 1.7 | -4.1 |
| CC1(C(=O)NCc2cccnc2)CCN1C(=O)c1cccc(F)c1 (stereo not drawn) | 3.9 | . | . | -11.5 | -0.5 | 5.0 |
| O=C(CCN1C(=O)c2ccccc2C1=O)C1=NN[C@@H]2C(=O)N(c3ccc4c(c3)OCO4)C(=O)[C@H]12 | 2.3 | -0.4 | 21.5 | -9.0 | -0.7 | 2.2 |
| COc1ccc(Cl)cc1C(=O)NC(=S)Nc1nc(C)cc(C)n1 | 1.9 | 52.0 | . | -1.0 | 1.2 | 3.7 |
| C=CCn1c(SCC(=O)N(C)c2c(N)n(Cc3ccccc3)c(=O)[nH]c2=O)nnc1-c1ccccc1OC | 0.0 | 0.8 | -6.2 | -12.1 | 0.4 | 22.7 |
| Cc1ccc(NC(=O)c2ncn(CCCNCc3ccc4c(c3)OCO4)n2)cc1C | -14.4 | 6.4 | . | . | -0.8 | -1.9 |
| Cc1ccc(-n2c(SCC(=O)NNC(=S)Nc3ccccc3)nc3ccccc3c2=O)cc1 | -13.7 | -24.5 | -10.0 | -12.6 | 2.0 | -13.6 |
| COc1ccc(/C=N/Nc2nc(Nc3ccccc3)nc(N3CCCC3)n2)cc1[N+](=O)[O-] | 10.0 | 0.4 | -21.1 | 7.0 | 0.6 | 12.9 |
| CCSc1ccccc1C(=O)NCc1cccnc1 | -2.5 | -14.6 | 2.5 | -7.0 | 1.2 | 1.6 |
| CC(C)c1nc(-c2ccccc2)c(-c2ccccc2)[nH]1 | 1.9 | -1.3 | -16.1 | -3.6 | 0.6 | 4.6 |
| COC(=O)CN1C(=O)C(O)(CC(=O)c2ccc(Cl)cc2)c2ccccc21 (stereo not drawn) | 4.4 | 3.5 | 10.4 | -9.2 | -0.1 | 7.6 |
| O=C(CSc1ccc2nnc(-c3ccccc3)n2n1)N1CCCc2ccccc21 | 2.3 | -5.5 | -10.0 | 4.3 | -0.2 | -5.4 |
| COCCCn1c(=S)[nH]c2ncccc2c1=O | 3.1 | 0.7 | -27.4 | -2.1 | -0.7 | 6.1 |
| CCc1ccc(N/C(SCc2cccc(F)c2)=C(/C#N)C(=O)NCc2ccco2)cc1 | -3.3 | 4.9 | -5.2 | -15.0 | 6.9 | -1.1 |
| O=C(Cn1ncc2c3ccccc3n(Cc3ccccc3F)c2c1=O)NCC1CCCO1 (stereo not drawn) | 2.2 | 4.9 | 28.0 | -3.8 | 1.0 | -1.8 |
| Cn1c(N)c(C(=O)COC(=O)CC(NC(N)=O)c2ccc(Cl)cc2)c(=O)n(C)c1=O (stereo not drawn) | -0.6 | 3.0 | 1.9 | 13.0 | 0.3 | -7.6 |
| O=C(O)c1cccc(S(=O)(=O)N2CCOCC2)c1 | 11.6 | -2.9 | -3.4 | -11.0 | 0.1 | 7.4 |
| COCc1cn(-c2nc3ccccc3s2)nn1 | -10.3 | . | . | . | -0.6 | 0.4 |
| CC(NC(=O)c1ccc(F)cc1)c1ccccc1 (stereo not drawn) | 6.6 | 3.4 | 1.9 | -1.5 | 0.4 | 2.2 |
| CCOC(=O)C1=C(C)NC(=S)NC1/C=C/c1ccccc1 (stereo not drawn) | 12.3 | 11.3 | 7.1 | 10.7 | 0.8 | 13.4 |
| COc1ccc(OC)c(NC(=O)Nc2cc(C(=O)O)ccc2C)c1 | 2.0 | 6.3 | -1.5 | -1.7 | 0.7 | -2.3 |
| C=CCOc1cccc(C(=O)N2CCCC(Nc3ccc4c(c3)OCCO4)C2)c1 (stereo not drawn) | -3.3 | -1.7 | 9.6 | -2.8 | 0.6 | -19.7 |
| Cc1cccc(OCC(=O)N(Cc2ccc(N(C)C)cc2)C2CCS(=O)(=O)C2)c1 (stereo not drawn) | 0.0 | -13.2 | -12.1 | -8.9 | 0.9 | 47.9 |
| O=C(C1=NOC2(C1)C(=O)N(Cc1ccccc1)c1ccccc12)N1CCOCC1 (stereo not drawn) | -0.4 | . | . | . | -0.8 | 0.7 |
| COCCCNC(=O)c1c(N)n(-c2ccc3c(c2)OCO3)c2nc3ccccc3nc12 | 15.3 | -2.4 | 4.7 | 16.6 | -1.3 | 3.4 |
| Cc1cc(C)c(C(O)c2ncc(-c3cccc(F)c3)[nH]2)c(C)c1 (stereo not drawn) | -5.4 | . | . | -3.5 | -1.1 | -12.1 |
| CC1(c2ccccc2)NC(=O)N(CC(=O)NCCC2=CCCCC2)C1=O (stereo not drawn) | 4.5 | 4.3 | -24.4 | -3.6 | 0.5 | -0.1 |
| Cc1cccc(OC(C)C(=O)Nc2ccccc2C(=O)N2CCCCC2)c1 (stereo not drawn) | -0.8 | -14.7 | -17.4 | 8.0 | 1.0 | 18.7 |
| c1ccc(C[C@H]2CN=C(Nc3ccccc3)N2CCCC2CCCCC2)cc1 | 1.2 | 38.4 | . | -25.6 | -0.2 | -5.4 |
| O=C(O)c1ccccc1-c1ccc(/C=c2\sc3nc4cc(Br)cnc4n3c2=O)o1 | ? | -1.6 | 9.5 | -7.1 | 16.2 | -81.0* |
| C[C@@H]1CN([C@H](C)CO)C(=O)CCCn2nncc2CO[C@H]1CN(C)C(=O)c1cc(-c2ccccc2)on1 | 3.6 | -2.7 | . | 3.5 | -0.4 | 5.8 |
| COc1ccc(C(CNC(=O)c2cc3ccccc3cc2O)N2CCOCC2)cc1 (stereo not drawn) | -11.9 | -10.0 | -18.1 | -1.5 | -0.8 | -23.0 |
| CCO[C@H]1OC(C(=O)N2CCOCC2)=C[C@@H](c2coc3ccccc3c2=O)[C@@H]1CCCO | 2.3 | -8.3 | -0.4 | -30.8 | -0.6 | 2.4 |
| CCOC(CNC(=O)c1[nH]c(C(F)(F)F)nc1-c1ccccc1)OCC | -6.8 | . | . | -5.1 | -0.1 | -11.8 |
| COc1ccc(CCNC(=O)c2ccccc2NS(=O)(=O)c2c(F)cccc2F)cc1 | -1.3 | 16.8 | 0.3 | -2.1 | 1.0 | -4.3 |
| Cc1ccc(C(=O)COC(=O)c2cn(-c3ccccc3)nc2-c2ccccc2)cc1[N+](=O)[O-] | -8.4 | 16.7 | 2.5 | -5.6 | 0.5 | -15.5 |
| CC(C(=O)Nc1cccc([N+](=O)[O-])c1)n1nnc2ccccc21 (stereo not drawn) | -4.3 | -0.4 | 5.1 | -35.7 | 0.5 | -0.1 |
| CC(=O)c1cccc(NS(=O)(=O)c2cc(-c3cnc(C4CC4)o3)ccc2C)c1 | . | 13.3&11.4 | 0.4 | -6.6 | 3.3&2.8 | -3.4 |
| O=C(c1ccccc1F)N1CCOCC1 | . | 12.4 | 2.0 | -5.6 | 0.1 | -5.3 |
| CNc1cnc(-c2ccc(C(=O)N3CCOCC3)cc2)cn1 | 8.2 | . | . | -4.3 | -0.1 | 0.6 |
| O=[N+]([O-])c1ccc2c(c1)OCCOCCOCCOCCOCCOCCO2 | -4.2 | -16.5 | 0.5 | -0.8 | -0.4 | -4.7 |
| Fc1cccc(F)c1C(Nc1nncs1)Nc1nncs1 | 2.3 | . | . | . | -0.2 | 7.2 |
| COc1ccc(Nc2ncnc3c2cnn3Cc2ccc(C)cc2)cc1 | -1.3 | -3.9 | 3.8 | 3.4 | 0.4 | -10.5 |
| O=C(O)C1Nc2c(O)cc(Cl)c([N+](=O)[O-])c2C2C=CCC12 (stereo not drawn) | . | 21.3 | ? | -3.7 | -0.6 | ? |
| CN(C(=O)c1cccc(NC(=O)Cc2cccc(NC(=O)C3CCCN(C(=O)C4CCC4)C3)c2)c1)C1CC1 (stereo not drawn) | -0.8 | 12.8 | . | -0.6 | 1.4 | 2.4 |
| CCN1/C(=C/c2ccc3cccc(C)c3[n+]2CC)Sc2ccccc21 | -18.9 | -10.7 | . | -21.4 | 57.9* | -17.9 |
| Cc1ccsc1/C=N/Nc1nc(Cl)c(Cl)cc1Cl | 2.8 | -5.5 | 15.4 | -12.3 | 0.8 | 3.6 |
| COCC(=O)OCC(=O)Nc1cc(C)c(C)cc1[N+](=O)[O-] | 0.1 | -12.0 | -7.0 | -1.1 | -0.6 | 0.9 |
| C=CCN1C(=O)c2ccccc2Sc2ccc(C(=O)NCCC)cc21 | . | -7.9 | 25.1 | 9.5 | -0.2 | 0.3 |
| Cc1cc(C)nc(N2CCC(C(=O)NCC3CCCCC3)CC2)n1 | 6.3 | 5.2 | 10.2 | -1.0 | 0.6 | -1.4 |
| CCOC(=O)C(=O)Nc1cc(C)nn1-c1nc2ccccc2[nH]1 | ? | -5.4 | . | -5.5 | 0.0 | -28.8 |
| O=c1ccc2cc([N+](=O)[O-])c(CCO)cc2o1 | 0.6 | 26.5 | ? | -3.5 | 0.1 | -2.5 |
| CCCc1cc(=O)oc2c(C)c(OCC(=O)Nc3ccc(CN4CCOCC4)cc3)ccc12 | . | 0.9 | ? | -6.7 | -0.2 | -0.8 |
| C[C@H](CO)N1C[C@H](C)[C@@H](CN(C)Cc2ccc(C(=O)O)cc2)Oc2c(NS(=O)(=O)c3cccs3)cccc2C1=O | 3.2 | 1.6 | . | . | -0.7 | 7.9 |
| Nc1nc(NC(=O)c2ccc(Cl)cc2)nn1-c1ccccc1 | -13.8 | -8.2 | 0.3 | -1.6 | -0.9 | -4.8 |
| COC(=O)CNC(=O)C(NC(=O)OCc1ccccc1)C(C)C (stereo not drawn) | 2.1 | 8.4 | 1.7 | -1.2 | -0.1 | 6.0 |
| COc1ccc(NC(=O)C(C)Sc2nnc3c4c(nc(-c5ccc(OC)cc5)n23)CC(C)(C)OC4)cc1 (stereo not drawn) | -8.4 | 33.6 | 0.2 | -1.5 | 1.0 | -2.4 |
